Assay outcomes as filed in PubChem BioAssay.
BJeLR lethal = MLPCN primary cell-based screen for lethality selective to Ras in HRASV12 cells. BJeLR (HRASV12) viability, CellTiter-Glo ATP luminescence, 48 h; reference of the scale not given here. inhibition, % (concentration not given with the values). hit rate 0.17% among 300,000. AID 1554, 2009;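 active means replicate mean above 50%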;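 further: 50 nL library stock added to about 25 µL; numbers are from one replicate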
Sa ugtP lethal = growth inhibition of ugtP-null S. aureus, primary screen, RN4220 ugtP deletion, OD600; growth inhibition, % (test concentration not listed); 16 h; some inactives read as strong as hits; AID 1259309, 2017; hit rate 0.54% among 330,000;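 active means z-score under -3 and OD600 up to 0.15 on both plates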;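 further: plate controls were untreated wells for no effect and antibiotic for full effect; wells of about 80 µL received 100 nL stock; the first replicate is given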
PrP UTR inh = inhibition of PrP 5' UTR reporter expression; inhibition, % (concentration not given with the values); AID 488862, 2010; cell-based PrP 5' UTR mRNA reporter, plate reader; hit rate 0.35% among 340,000;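 active means every replicate at 50% or more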;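 further: 0 = median of the neutral control wells; tested in H4 reporter cells; numbers are from one replicate; inactives centre near -14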
Mtb hypoxia inh = PubChem AID 1159583; M. tuberculosis hypoxia-regulated fluorescent reporter, fluorescence; fluorescence inhibition, % (no concentration beside the values); hit rate 0.1% among 300,000;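 active means 35 to 45% if threefold the growth effect, above 45% if 1.5-fold the growth effect; inactive means the rest, general growth blockers included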;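 further: wells of about 50 µL received 100 nL stock; 0% = vehicle wells and 100% = reference inhibitor wells; whole bacteria with a GFP reporter of the hypoxia response; strong numbers were not always called active; many hits fall short of the cut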
Autofluor counter = compound fluorescence in toxin protease inhibitor counterscreen. compound autofluorescence counterscreen, microsphere flow cytometry; hits give high values. AID 624483. hit rate 3.1% among 360,000. fluorescence intensity (test concentration not listed);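 active means at least 3 SD above the mean of all compounds, about 16000 in these data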;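 further: 100 nL of 1 mM stock went into each well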
RN4220 kill = growth inhibition of S. aureus RN4220, primary screen, OD600; 16 h; inhibition, % (test concentration not listed); hit rate 0.33% among 330,000;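 active means z-score of -3 or lower and OD600 up to 0.18 on both plates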;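 further: plate controls were untreated cells for no effect and reference antibiotic for full effect; stock transfer was 100 nL into about 80 µL; one replicate is shown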
Mtb hypoxia inh growth = recorded beside Mtb hypoxia inh, whose call it bears; growth inhibition, %; measured here: M. tuberculosis growth (absorbance);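 0% = vehicle and 100% = reference antibiotic; read after six days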
Active calls of the source: *; . = not tested or not shown.

SMILES	BJeLR lethal	Sa ugtP lethal	PrP UTR inh	Mtb hypoxia inh	Mtb hypoxia inh growth	Autofluor counter	RN4220 kill
CCC(C)[C@H](NC(=O)Nc1cccc(Cl)c1)C(=O)O (stereo partly drawn)	1	.	-2	.	.	3135	.
Cc1nn(Cc2ccc(C(=O)N3CCOCC3)o2)c(C)c1Br	3	4	-17	12	4	2076	6.3
Cc1c(C(=O)Nc2ccccc2)cnn1-c1ccccc1	4	3	-90	17	3	6487	1.3
O=C(O)c1cccc2c1C(=O)N(c1ccccc1)C2	-11	10	-19	-1	1	3761	-1.1
CCN(C(=O)C1CCCN(c2nc(-c3ccc(OC)cc3)no2)C1)c1ccc(OC)cc1 (stereo not drawn)	-2	-9	-31	.	.	5483	-4.9
COc1ccc(N2C(=O)CC(N(CCc3ccccc3)C(=O)c3ccccc3)C2=O)cc1 (stereo not drawn)	-8	4	-17	18	5	5317	2.4
O=S(=O)(N1CCOCC1)N1CCN(c2ccccc2F)CC1	-7	6	-14	8	11	6286	3.0
COc1cc(C(=O)O/N=C(\N)c2ccncc2)cc(OC)c1OC	3	8	-11	3	4	7973	9.3
Cc1ccc(C(NC(=O)NN2CCN(C)CC2)C(Cl)Cl)cc1F (stereo not drawn)	-1	9	-32	1	3	3926	0.1
O=Cc1ccc(N2Cc3ccccc3C2)cc1	-8	-1	-21	10	16	3829	13
COc1cc(/C=C/C(=O)OCC(=O)NCCCc2ccccc2)cc(OC)c1OC	.	2	-1	9	14	3626	-1.8
COc1ccc(C)cc1S(=O)(=O)NC(C)c1cnn(-c2ccccn2)c1C (stereo not drawn)	-3	2	-16	1	-4	5238	2.2
O=[N+]([O-])c1ccc(C=Nc2cccc3ccccc23)s1	2	97*	-44	11	-3	3982	98*
COc1ccc(NC(=S)N2CCCC(CO)C2)c(OC)c1 (stereo not drawn)	0	-3	-8	3	8	1861	1.6
Cc1nc2ccccn2c1C(=O)CSc1ccccc1	7	4	-2	20	6	4218	9.9
CN(C)S(=O)(=O)c1ccc(Cl)c(-c2nnc3n2CCCCC3)c1	-1	3	-14	6	-3	2198	2.3
COc1ccc(C(=O)CC(=O)C(=O)Nc2ccc(Cl)cc2)cc1	6	34	-15	7	-4	3917	43
c1ccc(NCCC2OCC3(CO2)COC(CCNc2ccccc2)OC3)cc1 (stereo not drawn)	.	1	-11	20	5	4064	0.5
CC(C)(C)C=NNC(=O)C1CC1	.	3	.	-3	2	.	3.5
Cn1c(CCc2ccccc2)nnc1SCC(=O)N1CCOCC1	8	9	-22	1	-2	8335	3.8
O=C(c1ccc(NC2=NC3CS(=O)(=O)CC3S2)cc1)N(CCO)Cc1ccccc1 (stereo not drawn)	-10	3	-17	5	6	5571	2.3
CCOC(=O)CNC(=O)CSc1nnc(-c2ccccc2OC)n1CC	4	4	-4	.	.	4844	3.5
O=C(CSc1nc2ccc(Cl)cc2[nH]1)Nc1ccc2c(c1)CCC2	2	.	6	.	.	2433	.
COCCN1C(=O)N[C@@H](c2ccccc2)[C@H](C(=O)OC)[C@H]1C	2	.	-5	.	.	4339	.
COn1c(-c2ccccc2)nc2c1CCc1nonc1-2	-1	1	-9	.	.	4272	0.0
Cc1ccc(-n2c(SCC(N)=O)nnc2-c2ccco2)cc1	0	1	-37	10	5	3767	0.1
NC(=O)C[C@@H]1N[C@]2(C(=O)Nc3ccccc32)[C@@H]2C(=O)N(c3cc(C(F)(F)F)ccc3Cl)C(=O)[C@H]12	3	-1	-16	-3	-5	9245	-1.2
COc1ccc(-c2cc(C(=O)Nc3ccc(OC)cc3OC)no2)cc1	-9	2	-16	9	-7	3407	2.5
O=C(c1cc(-c2ccc(Cl)cc2)on1)N1CCOCC1	-2	6	-74	6	-4	21336*	6.4
COc1ccc2c(c1)[nH]c1c(=O)n(CCCn3ccnc3)cnc12	2	-2	-19	13	5	2905	-15
CCC(CC)NC(=O)c1cccc([N+](=O)[O-])c1C	0	7	-6	7	6	2662	1.0
Cc1ccsc1/C=N/N1CCN(c2ccccn2)CC1	1	.	-35	.	.	3611	.
CCOC(=O)c1cc(S(=O)(=O)NCC2CCN(Cc3cccc(C)c3)CC2)cn1C	0	12	1	-7	-8	11153	5.6
CC(=O)Nc1ccccc1C(=O)C(=O)Nc1ccc(F)c(Cl)c1	-2	0	-21	-20	-10	3633	2.8
CC(=O)c1cc(Cl)ccc1OCC(=O)Nc1cccc(S(=O)(=O)N2CCCC2)c1	.	-9	-17	-3	3	8312	2.1
Cc1ccc(S(=O)(=O)CCN2CCC(O)(c3ccccc3)CC2)cc1	-7	0	-14	-8	8	3763	3.3
CNC(=O)C(=O)Nc1ccc(C)cc1C	3	-3	-28	-1	0	2567	-2.9
CC1=NOC(=O)/C1=C\c1ccc(-c2ccc(Cl)cc2Cl)o1	-1	.	-33	.	.	2948	.
COc1cc(SC)ccc1C(=O)Nc1cccc(S(=O)(=O)NC2=NCCC2)c1	.	10	-3	5	7	6481	16
CNc1ncc(Cc2ccccc2)s1	6	7	-13	7	11	10547	0.7
CC(NC(=O)C12CC3CC(CC(O)(C3)C1)C2)c1ccc(Cl)cc1Cl (stereo not drawn)	5	2	-5	-9	-3	3539	7.2
CN(Cc1cnccn1)Cc1cn(Cc2ccccc2)nc1-c1ccc2c(c1)OCO2	3	9	-2	10	7	4790	2.9
CCc1ccc(C(C)NC(=S)NC2CCCCC2)cc1 (stereo not drawn)	7	-4	-14	-6	7	5722	-3.7
CCOC(=O)c1cc2c(=O)n3ccccc3nc2n(CC2CCCO2)c1=NC(C)=O (stereo not drawn)	4	0	-10	5	8	3221	0.2
CC(C)C(c1nnnn1C1CCCC1)N1c2ccccc2CC1C (stereo not drawn)	-5	-7	-3	7	0	4233	9.0
OC1CCN(Cc2nc(Cc3ccccc3Cl)no2)CC1	3	4	-22	1	-2	2016	4.9
O=C(CCC1CCN(C(=O)c2ccccc2Cl)CC1)NCc1ccc(F)cc1	6	4	-23	10	9	5188	-0.4
COc1nc(N(C)C)nc(N(OC)S(=O)(=O)c2ccccc2Cl)n1	-1	0	-13	5	5	3371	3.2
CC(Cc1cccnc1)NC(=O)c1ccccc1OC1CCN(S(C)(=O)=O)CC1 (stereo not drawn)	2	8	6	6	9	4202	1.0
CC(C)[C@H](NC(=O)N1CC(=O)Nc2ccccc21)C(=O)N[C@H](Cc1ccccc1)C(=O)O	-4	-11	-1	.	.	5730	7.6
CC(Sc1ccccc1F)C(=O)Nc1cccc(S(=O)(=O)N2CCOCC2)c1 (stereo not drawn)	.	3	-14	15	7	4000	6.1
O=C(CN1C(=O)c2ccccc2S1(=O)=O)NCc1cccnc1	0	17	-21	5	2	7991	6.6
O=C(Nc1ccccc1N1CCN(C(=O)c2ccccc2)CC1)c1cc(Br)ccc1Cl	-9	-7	-4	1	-2	4553	0.1
COCCN(Cc1cccs1)S(=O)(=O)c1ccc(-c2ccc(=O)[nH]n2)s1	-3	-1	-14	1	-5	4329	3.5
CCOC(=O)c1cccc(NC(=O)Cn2nc(C)n3cccc3c2=O)c1	-3	3	-9	4	3	6106	2.4
O=C(O)c1ccc(N2C(=O)c3cccc(Oc4ccc(Cl)cc4)c3C2=O)cc1	-7	15	-35	-12	-4	2569	1.2
CSCCC(NS(=O)(=O)c1ccccc1)C(=O)OC(C)C(=O)Nc1ccc(Cl)cn1 (stereo not drawn)	.	-2	-15	-6	8	6095	0.5
Cc1ccccc1NC(=O)NCCc1ccc(Cl)cc1	-6	-4	-38	14	2	2128	3.4
N#CCCN(CCC#N)C(=O)C1c2ccccc2Oc2ccccc21	-8	.	-8	.	.	3018	.
O=c1[nH]cnc2c1c(-c1ccccc1)cn2-c1cccc(Cl)c1	0	-27	-9	-4	-1	5473	28
(more compounds)
SMILES	BJeLR lethal	Sa ugtP lethal	PrP UTR inh	Mtb hypoxia inh	Mtb hypoxia inh growth	Autofluor counter	RN4220 kill
Clc1ccc(Cl)c(Oc2ccc(Oc3nc(Cl)ccc3Cl)cc2)n1	-13	38	-16	7	-1	16369*	-1.2
Cc1ccc(C(=O)CCc2ccc(N)cc2)cc1	-1	5	-19	3	6	3851	5.1
O=c1c2ccccc2cnn1-c1ccc(Cl)nn1	-8	5	-17	4	6	3552	3.0
CS(=O)(=O)Nc1cccc(C(=O)OCCCOc2ccc(F)cc2)c1	-6	8	-10	10	21	4082	3.8
Cc1ccc(C(=O)Nc2ccccc2-c2ccccc2)cc1[N+](=O)[O-]	4	-2	.	17	4	11957	1.7
COc1ccc(OC)c(/C=N/NC(=O)c2cc3c(OC)c(OC)ccc3[nH]2)c1	-2	.	-21	.	.	2248	.
CN(C)C(=O)CSc1n[nH]c(=O)n1CCc1ccccc1	-4	2	-4	15	2	5196	3.2
Cc1nn(-c2cccc(Cl)c2)c2c1C(c1ccncc1)C(C#N)=C(N)O2 (stereo not drawn)	1	3	-26	11	7	9376	3.9
CCOC(=O)NCc1cc(-c2nn(C)c(=O)c3ccccc23)ccc1C	-2	-2	-13	.	.	3956	-0.5
CC(=O)OCCn1c(C)[n+](CCOC(C)=O)c2cc(Cl)c(Cl)cc21	1	10	-20	13	6	4689	2.5
CCCN(CCC)C(=O)CC(c1ccc(F)cc1)c1ccco1 (stereo not drawn)	-24	2	-7	.	.	3271	0.1
CN(C)/C=C/C(=O)Oc1ccc(Cl)cc1Cl	2	.	-14	.	.	4121	.
Cc1ccc(S(=O)(=O)NC(=O)Nc2ccc(F)cc2)cc1	-4	9	-4	-2	-6	16339*	-0.1
Cc1ccn2cc(CCNS(=O)(=O)c3ccc([N+](=O)[O-])cc3)nc2c1	-4	1	1	0	5	4181	4.1
CCCC(=O)Nc1ccccc1NC(=O)CN(C)S(=O)(=O)c1ccc(C)cc1	-1	6	-34	7	2	3322	2.8
CCOC(=O)C1CCCN(C(=O)c2ccc([N+](=O)[O-])cc2)C1 (stereo not drawn)	-1	1	-12	4	5	2349	3.0
O=C(CSc1nc2ccc(Cl)cc2[nH]1)c1cccs1	6	.	-64	.	.	4349	.
CCN(CC)CCCn1c(C)cc2c(c1=O)C(c1cccc(Cl)c1)C(C#N)=C(N)O2 (stereo not drawn)	.	9	3	-1	-9	2484	-1.3
O=C(c1ccc(Cl)cc1)c1oc2ccccc2c1CS(=O)c1ccccc1 (stereo not drawn)	4	-8	-19	4	-11	20280*	0.0
CCC(C)(C)c1ccc(OCC(=O)Nc2ccncc2)cc1	13	2	0	11	7	3327	9.9
O=c1c2ccccc2nc(-c2ccccc2Cl)n1-c1cccc(O)c1	-2	-12	-22	0	-10	3795	2.7
CCOc1ccccc1CNC(=O)c1ccc2c(c1)N(CC)CCS2	-1	-11	9	1	5	4219	-5.6
CC1CN(c2ccccc2)CCN1C(=O)c1cc(COc2c(F)cccc2F)on1 (stereo not drawn)	15	18	-16	6	2	6260	1.1
COc1cc(Cl)c(C)cc1NC(=O)c1cc(S(=O)(=O)N(C)C)ccc1N1CCCC1	-5	7	0	15	13	2035	2.9
Cc1cc(C)cc(OCC(=O)N/N=C/c2ccncc2)c1	-2	.	-32	.	.	1972	.
COc1cc(C=C2C(=O)ON=C2c2ccccc2)ccc1O	.	-1	.	1	9	.	2.6
CC(C)NC(=S)N/N=C/c1cccs1	1	.	-4	.	.	3820	.
CCN1C(=O)C(C)SC1=NS(=O)(=O)c1ccc(F)cc1 (stereo not drawn)	.	-2	.	-5	-3	.	3.1
Cn1c(-c2ccccn2)[n+](C)c2ccccc21	-5	-2	12	13	7	4654	3.3
Cc1nn(-c2ccccc2)c(Cl)c1C=NNc1nncc(=O)[nH]1	.	0	.	9	-3	.	2.4
